Assay outcomes (PubChem)
gsp antagonist = qHTS for Antagonists of gsp, the Etiologic Mutation Responsible for Fibrous Dysplasia/McCune-Albright Syndrome: qHTS | AID 624288, 2012 | 0.4% of 340,000 active | gsp-mutant cells, cAMP HTRF, 30 min; control for the full effect not named in the record | Potency, µM (doses to about 76.9 µM), for the others: at the highest dose activity change, negative = inhibition, hits mostly inhibitors; active = falling curve of any shape with a large fitted effect; inconclusive = falling curve, mostly with a smaller effect; inactive = flat or rising curve; cell line not stated here;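 also: intracellular cAMP measured with PDE inhibitor Ro 20-1724 present during compound exposure; potency is read from the fitted curve at half-maximal effect; % is scaled to controls: 0 for no effect and ±100 for the full control effect; nearly all actives have a fitted effect of over 65% in size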
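G418-selected cells were plated in DMEM/10% FBS for 16-24 h at 37C, then treated with compounds plus the PDE inhibitor […] (300 uM solution added) for 30 min at 37C. Intracellular cAMP was measured by HTRF after 30 min lysis at room temperature.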
TRPV1 potentiator = HTS Assay for Compounds that Act as Potentiators of the Vanilloid Receptor 1; Transient receptor potential cation channel subfamily V member 1 (Homo sapiens), Q8NER1; TRPV1-expressing cells, Fluo-8 calcium influx, capsaicin EC20 potentiation; host cell line not named in the record; control for the full effect not named in the record; potentiation, % at 8.33 µM; 0.02% of 320,000 active; AID 540277, 2011; active means potentiation above 80%; inconclusive means 30% to 80%; inactive means below 30%; also: 0% is about no effect
Target sequence (Q8NER1 whole entry, looked up): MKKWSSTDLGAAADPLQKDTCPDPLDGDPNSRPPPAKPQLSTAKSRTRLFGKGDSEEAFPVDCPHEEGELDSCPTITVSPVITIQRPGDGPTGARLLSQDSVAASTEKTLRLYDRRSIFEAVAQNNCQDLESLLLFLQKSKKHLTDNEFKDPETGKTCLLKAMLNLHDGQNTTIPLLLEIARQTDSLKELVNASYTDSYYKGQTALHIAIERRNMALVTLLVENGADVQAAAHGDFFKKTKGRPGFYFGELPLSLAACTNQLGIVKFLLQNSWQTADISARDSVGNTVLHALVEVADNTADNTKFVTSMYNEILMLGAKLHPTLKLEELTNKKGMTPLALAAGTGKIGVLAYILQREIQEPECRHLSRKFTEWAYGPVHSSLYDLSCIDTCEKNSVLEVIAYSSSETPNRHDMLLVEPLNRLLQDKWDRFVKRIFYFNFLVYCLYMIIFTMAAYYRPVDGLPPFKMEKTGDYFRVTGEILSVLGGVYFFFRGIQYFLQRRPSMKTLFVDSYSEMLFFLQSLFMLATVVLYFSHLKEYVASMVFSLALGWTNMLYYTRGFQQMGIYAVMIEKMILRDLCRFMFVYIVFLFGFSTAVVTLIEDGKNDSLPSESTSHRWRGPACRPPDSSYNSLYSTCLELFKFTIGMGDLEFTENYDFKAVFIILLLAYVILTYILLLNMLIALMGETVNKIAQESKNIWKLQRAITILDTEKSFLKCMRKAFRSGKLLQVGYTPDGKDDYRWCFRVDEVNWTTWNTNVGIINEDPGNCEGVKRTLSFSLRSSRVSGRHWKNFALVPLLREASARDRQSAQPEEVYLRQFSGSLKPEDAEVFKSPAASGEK
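Cells expressing TRPV1 were dye-loaded with Fluo-8 and read kinetically: 10 s baseline, 3 min after compound (agonist portion), then 2 min after EC20 capsaicin (allosteric enhancer portion). Calcium-bound dye fluorescence at 480/520 nm.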
CtBP-E1A blk = qHTS Assay for Inhibitors of the CtBP/E1A Interaction; CtBP / adenovirus E1A interaction (AlphaScreen); AlphaScreen GST-E1A/His-CtBP binding, 1536-well; stronger effect = lower value; control for the full effect not named in the record; activity change, % (concentration not given with the values); 0.49% of 340,000 active; AID 651724, 2012; in the data active means activity change below about -65%; inconclusive means about -30% to -65%; inactive means above about -30%; also: % is scaled to controls: 0 for no effect and ±100 for the full control effect
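Homogeneous bead-based format: GST-tagged E1A captured on glutathione donor beads, His-tagged CtBP on nickel acceptor beads; compounds precede bead addition by 2 h at 37 °C.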
gsp ag = qHTS for Agonist of gsp, the Etiologic Mutation Responsible for Fibrous Dysplasia/McCune-Albright Syndrome: qHTS; AID 624287, 2012; gsp mutant cells, cAMP HTRF, 30 min; control for the full effect not named in the record; Potency, µM (titrated, usually from 76.9 µM), for the others: top-dose activation (cAMP increase), most hits filed as activators; 0.13% of 340,000 active; active = well fitted activation curve with a large enough effect; inconclusive = small, poorly fitted or top-dose-only effect, or another doubt; inactive = no such curve, though single readings can be large or run the other way; cell line not stated here;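 also: phosphodiesterase inhibitor Ro 20-1724 added with compounds to block cAMP breakdown; potency is read from the fitted curve at half-maximal effect; nearly all actives have a fitted effect of over 60% in size; about a fifth of the inactives were tested at one dose only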
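Cells in DMEM/10% FBS with G418 were pretreated with compounds in DMSO plus […] (300 uM stock) for 30 min at 37C. cAMP was measured by HTRF (cAMP-d2 plus anti-cAMP antibody-K) after 30 min at room temperature.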
ClpP mod = qHTS Assay for Activators of ClpP | Potency, µM (top dose mostly 57.5 µM), for inactives: at the top dose activity change, negative = active | AID 651965, 2013 | purified B. subtilis ClpP, FRET peptide cleavage, 20 min | ATP-dependent Clp protease proteolytic subunit (Bacillus subtilis (strain 168)), P80244 | 1.9% of 340,000 active; active = well fitted falling curve with a large enough effect; inconclusive = small, poorly fitted or top-dose-only effect; inactive = no such curve, though single readings can be large or run the other way; also: potency is read from the fitted curve at half-maximal effect; the source files actives as falling curves though it sought activators and does not explain the sign; nearly all actives have a fitted effect of over 65% in size; many hits overshoot -100%
Target sequence (P80244 whole entry, looked up): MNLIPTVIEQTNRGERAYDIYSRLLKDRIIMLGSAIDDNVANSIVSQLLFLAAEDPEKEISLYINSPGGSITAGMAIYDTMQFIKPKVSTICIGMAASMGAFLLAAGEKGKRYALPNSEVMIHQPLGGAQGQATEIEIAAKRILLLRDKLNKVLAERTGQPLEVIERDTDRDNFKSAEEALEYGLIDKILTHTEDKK
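FRET quenching reversal measured ClpP activation: 10 microg/mL B. subtilis ClpP at pH 8 with the FRET-FV decapeptide, read at 430 nm after 320 nm excitation. The 20-min minus 0-min signal was scaled between DMSO/no-enzyme wells and ADEP (5.8 microM final).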
Menin MLL FP FL = qHTS Assay for Inhibitors Targeting the Menin-MLL Interaction in MLL Related Leukemias: Competition With Fluorescein Labeled MLL-derived Peptide | FP activity change, % at 61.4 µM | 290,000 tested, under 10 active | Fluorescence polarization, fluorescein-MLL peptide displacement from menin; inconclusive = falling polarisation curve, or a change in total fluorescence; inactive = total fluorescence flat and polarisation flat or rising; no compound was filed as active; the % refers to the polarisation; negative = inhibition;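 also: % of control where 0% means no effect; inhibitors lower the polarisation; unlabelled MLL peptide was the positive control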
Sfp inh = qHTS Assay for Inhibitors of Bacillus subtilis Sfp phosphopantetheinyl transferase (PPTase) | Potency, µM, inactives show max response, negative = inhibition, actives largely listed as inhibitors | 3.5% of 310,000 active | 4'-phosphopantetheinyl transferase ffp (Bacillus subtilis), Q9F4F7 | Biochemical Sfp PPTase activity, qHTS; active = well fitted inhibition curve with a large enough effect; inconclusive = small, poorly fitted or top-dose-only effect, or another doubt; inactive = no such curve, though single readings can be large or run the other way;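 also: the enzyme is Sfp with the accession as filed and its product quenches rhodamine fluorescence; potency is read from the fitted curve at half-maximal effect; 0% = enzyme reaction without inhibitor and -100% = no enzyme wells; top concentration of the series not given in the record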
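After 15 min at room temperature with compound, 15 nM Sfp received 5 uM rhodamine-CoA plus 12.5 uM BHQ-2-ybbR (50 mM Hepes pH 7.6, 10 mM MgCl2). Rate came from the fluorescence difference over 30 min, ex 525/em 598 nm.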
* marks the source's active call; other numbers are inactive results; i = inactive; u = inconclusive; x = no result given; & = joins results of further samples; [ ] = another dose, or the depositor's remark.

SMILES	gsp antagonist	TRPV1 potentiator	CtBP-E1A blk	gsp ag	ClpP mod	Menin MLL FP FL	Sfp inh
CC(C)N1CC2(CC(c3ccccc3C(F)(F)F)=NO2)CN1C(=O)c1ccc(C(C)(C)C)cc1 (configuration not stated)	x	x	-8	2%	-0.7%	x	x
Cc1ccc(C(=O)N[C@H](C(=O)Nc2cccc(S(=O)(=O)N3CCOCC3)c2)C(C)C)cc1	x	x	1	-36%[inhibitor]	4.3%	x	x
Cc1nc2ccccc2n1CC(=O)N/N=C/c1cccs1	0%	-2	4	4%[15.4 µM]	-0.3%	1.9	8%
CCCOC(=O)C1C2C=CC(C3CC23)C1C(=O)OCC(=O)c1ccccc1 (configuration not stated)	-17%	-8	16	-5%	-1.4%	-5.7	4%
CC1CCN(c2nc3ccc(C(=O)O)cc3s2)CC1	-24%	-1	12	-3%	-3.5%	1.1	8%
O=C(Nc1cccc(F)c1)C1CCCCC1	2%	-11	4	x	1.6%	x	x
CCCn1c(=O)[nH]c(=O)c2c1nc(-c1ccc(C(F)(F)F)cc1)n2CCOC	-13%	-1	2	17%[15.4 µM]	x	-12	-6%
O=C(NCCO)c1ccc(Cl)c(Cl)c1	11%	15	7	0%	-1.9%	-1.0	-13%
CC(=NNS(=O)(=O)c1ccc(C)cc1)c1ccncc1	x	x	-6	u	-1.8%	x	x
O=C(CCn1c(=O)oc2ccccc21)N1CCN(c2ccc(F)cc2)CC1	1%	10	3	u	-6.3%	1.9	-5%
COc1ccc(C)cc1NC(=O)COC(=O)C1CC1	16%	-3	3	24%	0.7%	1.6	11%
CCOC(=O)N1CCN(Cc2nnc(-c3ccccc3Cl)o2)CC1	9%	5	-5	-13%	-2.7%	-0.1	3%
Cc1ccc(NC2=NC(c3ccco3)n3c(nc(C)cc3=O)N2)c(C)c1 (configuration not stated)	x	6	x	x	x	2.0	22%
COCC(=O)N(Cc1nc2sc(C)c(C)c2c(=O)[nH]1)C1CCCCC1	3%	-13	-2	19%	-11%	4.0	17%
COc1ccc(NC(=O)CCc2c(C)nn(-c3ccc(N4CCOCC4)nn3)c2C)cc1	-5%	2	-20	u	-7.3%	3.2	4%
CC(=O)N1CN(C2CCCC2)Cc2c1sc1c2CCCC1	-25%	-15	-5	1%	-3.1%	-1.0	1%
O=C(CSc1nc2sc3c(c2c(=O)n1-c1ccccc1)CCCC3)NCc1ccco1	-2%	-14	-1	17%	u	-1.5	-16%
Cc1cc(C)n(-c2nc3ccccc3nc2NCCc2ccccc2)n1	1%	x	32	8%	3.9%	-1.1	u
COc1cccc(/C=N/Nc2ncnc3c2ncn3Cc2ccccc2)c1O	0%	u	-87*	-3%	-17%	x	9%
CCOc1ccc2nc(SCC)[nH]c2c1	4%	-19	5	-5%	1.7%	0.8	-19%
Cc1ccc(OCCN2C(=O)S/C(=C\c3ccc(C)o3)C2=O)cc1	8%	18	-2	0%	-1.3%	23	18µM*
O=C(CCC1CCCN(C(=O)c2ccco2)C1)NCc1ccccc1F (configuration not stated)	7%	3	2	21%	-0.7%	-0.1	23%
Cc1ccc(C2=NNC(C(O)C(O)C(O)CO)S2)cc1 (configuration not stated)	12%	8	1	3%[15.4 µM]	-0.9%	-1.6	-14%
CN(Cc1ccc(F)cc1)C(=O)c1ccc(NS(=O)(=O)c2ccc3[nH]c(=O)[nH]c3c2)cc1	4%	2	6	-5%[15.4 µM]	1.2%	x	x
C=CCN1CCC(=O)C(C(=O)OCC)=C1C(=O)OCC	10%	x	6	x	1.8%	x	x
COc1ccc(-c2nc(NC(=O)C3=NN(c4cccc(C)c4)C(=O)CC3)sc2C)cc1	-22%	-1	x	15%	0.8%	-2.4	-18%
COC(=O)C(C(=O)OC)C(c1ccccc1)C(C(=O)c1ccccc1)[N+](=O)[O-] (configuration not stated)	-1%	-5	2	15%	x	4.7	4%
COc1cccc(NC(=O)CN(C)C(=O)c2cccc(S(=O)(=O)N3CCN(c4ccc(F)cc4)CC3)c2)c1	-23%	10	-4	2%	1.3%	x	x
Cc1ccc(C(=O)CC(=O)COc2ccc(Cl)cc2C)cc1	-7%	-11	11	26%[15.4 µM]	x	-1.1	14%
Cc1cc(N/N=C/c2ccco2)c2ccccc2n1	3%	7	-11	-13%	3.6%	-0.1	13%
CC1(C)CC=CC(COC(=O)c2ccccc2C(=O)O)C1 (configuration not stated)	1%	x	12	4%	0.7%	x	x
COc1ccc(C2CC(c3ccc(Cl)cc3)Nc3nc(NC(=O)c4ccco4)nn32)cc1 (configuration not stated)	-12%[15.4 µM]	8	7	-11%	-0.2%	3.1	-13%
COC(=O)C[C@H]1c2cc(F)ccc2S(=O)(=O)N1Cc1ccccc1OC	2%	x	4	x	-1.3%&1.4%	x	x
O=c1oc(-c2ccc(F)cc2)nc2ccsc12	-6%	4	2	-6%	0.1%	-2.2	21%
O=S(=O)(c1cccs1)N1CCN(Cc2ccccc2)CC1	0%	-12	0	-50%[inhibitor]	-2.0%	2.0	12%
CC(=O)Nc1ccc(NC(=O)c2cccc(S(=O)(=O)N3CCCCCC3)c2)cc1	1%	x	-1	-2%	-5.0%	x	x
O=C1CCC(c2ccc3c(c2)CCC3)=NN1	-5%	-21	x	23%	0.0%	-1.3	11%
CCN1CCN(c2ccc(S(=O)(=O)N3CCOCC3)cc2NC(=O)c2ccc(C(F)(F)F)cc2)CC1	-2%	4	-4	9%[15.4 µM]	-1.6%	x	x
O=C(CSc1ccc2nnc(-c3ccc(F)cc3)n2n1)N1CCCc2ccccc21	8%	21	-27	-33%[inhibitor]	-7.1%	1.5	-29%
O=C(CCCN1C(=O)/C(=C\c2cccs2)SC1=S)Nc1ccc(O)cc1C(=O)O	u	1	x	-23%	1.4%	x	7%
C[C@H](NC(=O)[C@@H]1Cc2ccccc2CN1)C(=O)Nc1ccc2c(c1)OCO2	13%	-9	3	-47%[inhibitor]	-0.7%	x	4%
COc1ccc(NC(=O)Cn2nnc(C(=O)NCc3ccccc3)c2N)c(OC)c1	9%	-3	3	u	1.6%	31[activator]	-4%
Cn1c(SCC(=O)NC2CCCC2)nnc1-c1ccccn1	-11%	-4	-3	13%	-1.8%	x	14%
O=C(NNC(=O)c1ccccc1)C(=O)N1CCCCC1	16%	24	2	23%	-1.0%	-0.3	-12%
O=C(CN1CCN(c2ccccn2)CC1)N(c1ccccc1)c1ccc2ccccc2c1	-9%	-6	-2	3%	-6.5%	-4.5	-3%
Cc1cccc(C)c1NC(=O)c1cc(S(=O)(=O)N2CCC3(CC2)OCCO3)ccc1F	x	x	2	3%	1.4%	x	x
CCOC(=O)C1CCN(C(=O)c2ccc3c(=O)n4nc(Nc5ccccc5)sc4nc3c2)CC1	x	x	-4	42%	-9.6%&-18%	x	x
CC1(C)Cc2c(C#N)c(N3CCOCC3)nc(-c3ccccc3)c2CO1	u	-10	20	-2%	35µM*	-0.6	2%
CC1(c2ccc(Cl)cc2)NC(=S)N2C1NC(=S)N2c1ccccc1 (configuration not stated)	-21%	-5	-6	-5%[15.4 µM]	x	2.6	-10%
COc1nc(Cl)cn(-c2ccc(Cl)cc2)c1=O	9%	-16	-9	10%	-14%	-0.4	-1%
O=C(NCc1cccnc1)c1cnn2ccccc12	2%	x	-1	-31%[inhibitor]	5.5%	0.8	10%
COc1ccc(/C=C(/NC(=O)c2ccccc2)C(=O)N/N=C/c2cccs2)cc1OC	0%	11	-8	-9%	-2.6%	-1.8	10%
CCN(CC)S(=O)(=O)c1ccc(N/N=C(\C)c2ccncc2)c([N+](=O)[O-])c1	-7%	27	-3	-8%	x	1.4	6%
Fc1ccc(Sc2nc(-c3ccccc3)nnc2C(F)(F)F)cc1	5%	5	8	8%	-0.8%	0.4	5%
Cc1noc(-c2ccccc2OC(=O)c2ccccc2)n1	2%[15.4 µM]	-4	14	0%	-2.0%	-0.7	9%
Cc1cc2c(c(=O)n1-c1ccccc1)C1O[C@](c3ccsc3)(Cc3cc(C#N)ccc31)O2	x	i	x	x	x	4.9[11.7 µM]	7%
CCOc1ccc(CN2CCN(S(=O)(=O)c3ccc(NC(C)=O)cc3)CC2)cc1	x	-11	-20	-10%[15.4 µM]	x	0.1	u
Cn1cc([N+](=O)[O-])c(C(=O)Nc2cc(Oc3cccnc3)cc([N+](=O)[O-])c2)n1	7%	28	9	-1%	-0.3%	-5.3	-9%
CCCN(CCC)C(=S)NC(=O)c1ccc(Cl)cc1Cl	-3%	-12	6	2%	0.4%	1.4	8%
O=C(CSc1nc2nn(-c3ccccc3)c(=O)c-2c2n1CCCCC2)Nc1ccc(F)c(F)c1	u	x	-4	-1%	x	x	x
The list continues:
SMILES	gsp antagonist	TRPV1 potentiator	CtBP-E1A blk	gsp ag	ClpP mod	Menin MLL FP FL	Sfp inh
c1ccc2nc(-c3ccc(-n4ccnc4)cc3)ccc2c1	0%	-6	-16	-6%	-22%	3.0	21%
N=c1oc2ccccc2cc1C(=O)NC1CCCCCC1	-5%	-13	-3	u	-22%	3.0	-12%
Cc1nn(C)c(C)c1S(=O)(=O)N(CC(=O)Nc1ccccn1)c1ccc(C(C)C)cc1	10%	-5	3	-76%	0.2%	6.2	14%
COc1ccccc1N1CCN(Cc2ccc(C(=O)O)cc2)CC1	-20%	-14	0	u	x	-1.8	20%
CCC(=O)c1ccc(N2CCCCCC2)c(F)c1	4%	-14	27	24%	-5.8%	1.2	u
